Bioassay records deposited in PubChem by National Center for Advancing Translational Sciences (NCATS).
D2 PAM: human D2 receptor positive allosteric modulation; P14416; DiscoveRx D2 beta-arrestin cells, luminescence, 90 min; 100% = 57 uM dopamine signal; potentiation, % (no concentration beside the values); 0.23% of 360,000 active; active = potentiation of 50% or more; inconclusive = 30% to 50%; inactive = 30% or less;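 note: compound concentration not given in the record; tested on top of an EC20 dose of dopamine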
Target sequence (P14416 whole entry, looked up): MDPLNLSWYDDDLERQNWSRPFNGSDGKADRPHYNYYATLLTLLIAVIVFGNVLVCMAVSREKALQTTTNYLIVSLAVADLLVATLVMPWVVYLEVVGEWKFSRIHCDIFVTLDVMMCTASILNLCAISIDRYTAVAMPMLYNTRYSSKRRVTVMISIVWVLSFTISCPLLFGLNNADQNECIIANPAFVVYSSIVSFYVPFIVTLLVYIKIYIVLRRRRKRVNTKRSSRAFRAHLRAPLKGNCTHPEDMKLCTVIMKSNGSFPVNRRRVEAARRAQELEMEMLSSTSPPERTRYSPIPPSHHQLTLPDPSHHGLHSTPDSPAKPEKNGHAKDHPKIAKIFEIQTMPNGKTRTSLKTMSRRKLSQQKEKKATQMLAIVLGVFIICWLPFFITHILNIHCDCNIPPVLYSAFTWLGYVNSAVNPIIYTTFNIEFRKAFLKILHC
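PathHunter D2 cells, attached overnight at 37 deg C, received compound in DMSO plus dopamine at EC20 (50 nM final) for 90 min at 37 deg C. Beta-arrestin recruitment was read as luminescence after 1 h with detection reagent at ambient temperature.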
TRPV1 PAM: human TRPV1 potentiation. TRPV1-expressing cells, Fluo-8 calcium influx, capsaicin EC20 potentiation; host cell line not named in the record; control for the full effect not named in the record. 0.02% of 320,000 active. Q8NER1. potentiation, % at 8.33 µM; active means potentiation above 80%; inconclusive means 30% to 80%; inactive means below 30%; note: 0% is about no effect
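Cells expressing TRPV1 were dye-loaded with Fluo-8 and read kinetically: 10 s baseline, 3 min after compound (agonist portion), then 2 min after EC20 capsaicin (allosteric enhancer portion). Calcium-bound dye fluorescence at 480/520 nm.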
CtBP-E1A blk: CtBP/E1A binding inhibition; activity change, % (test concentration not listed); AID 651724; 0.49% of 340,000 active; AlphaScreen GST-E1A/His-CtBP binding, 1536-well; active compounds read low; control for the full effect not named in the record; in the data active means activity change below about -65%; inconclusive means about -30% to -65%; inactive means above about -30%; note: % is set by controls: 0 for no effect and ±100 for the full control effect
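In 5 uL wells, 23 nL compound meets equimolar GST-E1A and His-CtBP (5X stock 125 nM each) for 2 h, 37 °C. Beads (5X, 50 ug/mL) then 1 h, 37 °C, dark.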
TRPML1 ag: agonists of human TRPML1 channel | Q9GZU1 | TRPML1-expressing cells, Ca2+ dye fluorescence, FDSS; host cell line not named in the record; reference of the full effect not given here | activation, % (concentration not given with the values) | 0.12% of 410,000 active | AID 624414; in the data active = activation above about 50%; inconclusive = about 30% to 50%; inactive = below about 30%; note: 0% is about no effect; the text of the record puts the active cut at 80%
Target sequence (Q9GZU1 whole entry, looked up): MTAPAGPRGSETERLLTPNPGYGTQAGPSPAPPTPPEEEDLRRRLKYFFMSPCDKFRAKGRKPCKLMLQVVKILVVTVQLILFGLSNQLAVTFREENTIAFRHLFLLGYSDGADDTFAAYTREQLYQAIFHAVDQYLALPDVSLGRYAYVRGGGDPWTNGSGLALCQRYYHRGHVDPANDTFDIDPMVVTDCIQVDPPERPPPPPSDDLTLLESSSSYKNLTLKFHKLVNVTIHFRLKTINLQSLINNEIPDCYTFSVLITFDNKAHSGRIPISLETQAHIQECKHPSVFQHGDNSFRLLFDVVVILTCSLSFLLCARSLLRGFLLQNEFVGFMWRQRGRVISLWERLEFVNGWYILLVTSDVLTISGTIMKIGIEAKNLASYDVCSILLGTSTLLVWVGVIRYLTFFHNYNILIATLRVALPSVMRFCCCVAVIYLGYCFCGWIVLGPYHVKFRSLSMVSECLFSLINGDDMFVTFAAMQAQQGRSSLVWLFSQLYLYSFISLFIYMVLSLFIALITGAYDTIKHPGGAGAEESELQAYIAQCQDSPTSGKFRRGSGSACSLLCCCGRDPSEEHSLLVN
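Cells: TRPML1-DL, 1X Tet inducer, ~16 h at 37 degrees C/5% CO2. Dye: ABD Ca8 no-wash + quencher, 45-90 min RT. Read: 10 s baseline, compound add, 110 s agonist phase; 54-4 EC80 (4uM final), 110 s antagonist phase.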
Six1-Eya2 blk: inhibitors of human Six1/Eya2 interaction; AlphaScreen GST-Six1/His-Eya2 binding, biochemical; active compounds read low; control for the full effect not named in the record; activity change, % (concentration not given with the values); 0.56% of 360,000 active; AID 651725; in the data active = activity change below about -65%; inconclusive = about -30% to -65%; inactive = above about -30%; note: % is set by controls: 0 for no effect and ±100 for the full control effect
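AlphaScreen with GST-Six1 and His-Eya2 (5X mix: 250 nM and 500 nM), glutathione donor and nickel acceptor beads; buffer 50 mM Tris pH 8.0, 300 mM NaCl, 1 mM TCEP; 1 h at 37 C in the dark.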
TRPML1 inh: inhibitors of human TRPML1 channel. activity change, negative = inhibition, % (test concentration not listed). TRPML1-inducible cells, Ca2+ dye fluorescence, FDSS; active compounds read low; inhibition of EC80 agonist-evoked calcium signal. Q9GZU1. 0.02% of 390,000 active; in the data active means activity change below about -50%; inconclusive means about -30% to -50%; inactive means above about -30%;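 note: stimulus is agonist 54-4 at its EC80 concentration; % is set by controls: 0 for no effect and ±100 for the full control effect; compound concentration not given in the record; the text of the record puts the active cut at -80%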
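Calcium fluorescence in TRPML1-DL cells induced overnight with Tet: a 110 s read after compound pin addition, then a 110 s antagonist read after challenge with 54-4 at 4 uM final (EC80).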
Active calls of the source: *; u = inconclusive; x = not tested or not shown.

SMILES | D2 PAM | TRPV1 PAM | CtBP-E1A blk | TRPML1 ag | Six1-Eya2 blk | TRPML1 inh
CCCc1n[nH]c(=S)n1Cc1ccco1 | -9 | -1 | x | -0.5 | 1 | 45
O=C(CN(CCc1ccccc1)C(=O)c1csnn1)NCc1ccc(F)cc1 | -7 | -14 | 4 | -0.2 | -4 | -9
COc1ccc(OC)c(-c2nc(C(=O)NC3CCN(Cc4ccccc4)CC3)cc3c2[nH]c2ccccc23)c1 | -97 | 9 | -26 | x | -19 | x
FCCCOc1ccc(CN2CCN(c3ccccc3F)CC2)cc1 | -7 | -3 | -1 | -1.9 | -1 | -12
O=C(NN1CCOCC1)c1cccc(Cl)c1 | -26 | 3 | 0 | 0.4 | 1 | -1
Nc1nc(Nc2cccc(F)c2)nc2ccccc12 | -5 | 6 | 2 | 0.0 | 8 | 14
COc1ccc(CCNC(=O)c2cc(=O)[nH]c3ccc(Br)cc23)cc1OC | 0 | 7 | 1 | -0.1 | 4 | 28
Cc1ccc(-c2csc(C3C(N)=NC(S)=C(C#N)C34CCCCC4)n2)cc1 (configuration not stated) | 8 | 6 | -17 | -0.5 | -19 | 6
O=[N+]([O-])c1cccc(-c2cc(-c3cc(Br)ccc3O)[nH]n2)c1 | -6 | -4 | -8 | 1.2 | -18 | 4
COc1ccc(S(=O)(=O)NCCCCNS(=O)(=O)c2ccc(OC)cc2)cc1 | 9 | -5 | -11 | 0.6 | 0 | 15
FC(F)(F)c1cccc(NC(=S)NCC(c2cccnc2)N2CCOCC2)c1 (configuration not stated) | 3 | -4 | 5 | 1.0 | 4 | 22
COc1ccc2[nH]c3c(=O)n4c(nc3c2c1)SCC4 | 13 | 4 | -16 | 0.0 | -27 | 24
CC1(C)N=C(c2ccccc2)C(c2ccccc2)=N1 | -1 | x | 5 | -0.5 | 5 | 10
O=C(Nc1ccc(C(=O)O)cc1)/C(=C\c1ccco1)NC(=O)c1ccc(Br)o1 | -2 | 0 | 7 | -1.1 | -2 | 1
CCOc1ccc(S(=O)(=O)Nc2ccc(C(=O)NCc3ccncc3)cc2)cc1 | -2 | 5 | 7 | 0.0 | 3 | 13
CC(C)c1nnc(NC(=O)CCCCCN2C(=O)C3C4C=CC(C4)C3C2=O)s1 (configuration not stated) | -7 | 25 | 7 | 0.3 | 11 | -20
Fc1cccc(/C=C2\CCCC3=C2NC(=S)NC3c2cccc(F)c2)c1 (configuration not stated) | -26 | -2 | x | -0.9 | -9 | 4
COc1ccc(N(Cc2ccccc2)N=O)cc1 | -4 | 8 | -24 | 1.3 | -6 | 4
Nc1cc(=O)[nH]c(SCc2nc3ccccc3n2Cc2ccccc2)n1 | -6 | -6 | -7 | 0.7 | 0 | 2
Cc1cc(NC(=O)CSc2nnc(-c3ccccc3F)n2N)no1 | -2 | x | 2 | 1.0 | -5 | 16
N#Cc1c(NCCN)nc(NCc2ccccc2)c2c1CCN(Cc1ccccc1)C2 | 2 | -2 | -23 | -0.5 | -15 | 4
COc1ccc(OC)c(NC(=O)COC(=O)c2c(C)noc2C)c1 | -3 | -1 | 0 | 0.1 | 1 | 11
O=C(O)CNS(=O)(=O)Cc1ccccc1 | -3 | x | -1 | x | 1 | x
O=C(O)C1C2C=CC(C2)C1C(=O)Nc1cccc(F)c1 (configuration not stated) | -5 | 11 | 2 | -0.2 | -2 | -4
CCOC(=O)N/N=C(/c1ccccc1)C1CCCCC1 | -2 | 3 | 13 | 3.1 | 2 | -15
(further entries)
SMILES | D2 PAM | TRPV1 PAM | CtBP-E1A blk | TRPML1 ag | Six1-Eya2 blk | TRPML1 inh
O=C(C1CC1)N1CCN(Cc2ccccc2)CC1 | -6 | x | 1 | 2.0 | 4 | -7
Cc1ccc(NC2C(=O)NC(=O)NC2=O)cc1 | -7 | x | -30 | 6.4 | -12 | 5
Cc1cc(C)cc(OCC(=O)OCC(=O)Nc2cc(C)nn2-c2ccccc2)c1 | 16 | 2 | 4 | 0.1 | 8 | -4
COc1cc(NS(=O)(=O)c2ccc(NC(=S)NC(=O)c3sc4ccccc4c3Cl)cc2)ncn1 | -2 | 5 | -9 | -0.1 | -11 | 4
COc1ccccc1NC(=O)Nc1c(C)nn(C)c1C | -2 | -3 | 4 | 0.4 | 5 | -3
CCN(C(=O)COC(=O)COc1ccc(Cl)c(C)c1)C1CCS(=O)(=O)C1 (configuration not stated) | 0 | -3 | 7 | 0.1 | 4 | 9
O=C(/C=C/c1cccs1)NC(=S)Nc1ccc(C(=O)O)cc1 | 5 | x | x | 0.8 | -3 | 8
O=C(c1cccc([N+](=O)[O-])c1)n1nc(-c2ccccc2)nc1NCc1ccccc1 | -1 | 14 | -9 | 0.1 | 7 | -12
CC/C(C)=N/NC(=S)NCc1ccco1 | -8 | 8 | -2 | 0.8 | 0 | 12
CC(Cc1ccccc1)C(=O)N1CCN(C)CC1 (configuration not stated) | -12 | 4 | 4 | -0.5 | 1 | 2
COc1ccc(-c2oc(=O)c3cc(OC)c(OC)cc3c2/C=C/c2ccc(F)cc2)cc1 | 3 | -2 | 12 | -0.7 | 7 | -4
CCCNC(=O)Cn1c(=O)oc2ccccc21 | -27 | 23 | 5 | 0.1 | 31 | 3
COC(=O)C1=C(C(=O)OC)[C@@H]2N(Cc3ccccc3)c3ccccc3[C@@]23C[C@@H](C(=O)OC)N(C(C)=O)C3=N1 | -2 | -42 | -10 | 0.7 | -19 | 13
Oc1ccc(N2CCN(Cc3cc4c(cc3Br)OCCO4)CC2)cc1 | -7 | -3 | -26 | 0.5 | -18 | 3
CCc1sc(N(C(=O)Cc2ccccc2)c2cccc(F)c2)nc1-c1ccc(C)cc1 | 5 | x | 9 | 0.1 | 8 | 10
CN1OC[C@@H]2CN(Cc3ccc(Cl)cc3)[C@H](c3cccc(Br)c3)C[C@@H]21 | x | x | -6 | 1.7 | -9 | 84
Cc1ccc(CS(=O)Cc2ccc(C(=O)N3CCN(c4ccccc4)CC3)o2)cc1 (configuration not stated) | -4 | -6 | x | -0.1 | -1 | 47
O=C(C#Cc1ccccc1)c1cccc([N+](=O)[O-])c1 | -14 | -8 | 8 | 3.5 | -7 | 9
O=S(=O)(c1ccc(Oc2ccc(F)c(Cl)c2)nc1)N1CCOCC1 | 4 | -8 | -15 | -1.0 | 13 | -10
S=c1[nH]nc(-c2ccc(Cl)cc2)n1/N=C/c1ccco1 | -13 | 15 | -11 | 2.0 | -11 | -17
N#Cc1nc(-c2cccc(Cl)c2)oc1NCc1cccnc1 | -11 | -1 | -16 | 0.4 | -6 | 8
CCOC(=O)c1sc(N2C(=O)C(O)=C(C(=O)c3ccco3)C2c2cccc([N+](=O)[O-])c2)nc1C (configuration not stated) | -31 | 14 | -16 | 1.8 | -14 | 1
CSc1ccccc1NC(=O)CN(C)Cc1cc(=O)n2ccsc2n1 | -4 | -18 | 0 | 0.1 | 3 | -4
COc1ccc(C2(NC(C)=O)CCN(C(=O)c3cccs3)CC2)cc1 | -8 | -2 | -1 | 3.4 | 3 | 5
O=S(=O)(CCN1CCN(c2ccccn2)CC1)c1ccc(Cl)cc1Cl | -9 | 7 | -1 | -0.6 | -9 | 9

Three compounds picked at random from the list so far:
SMILES | D2 PAM | TRPV1 PAM | CtBP-E1A blk | TRPML1 ag | Six1-Eya2 blk | TRPML1 inh
COc1cc(NS(=O)(=O)c2ccc(NC(=S)NC(=O)c3sc4ccccc4c3Cl)cc2)ncn1 | -2 | 5 | -9 | -0.1 | -11 | 4
COC(=O)C1=C(C(=O)OC)[C@@H]2N(Cc3ccccc3)c3ccccc3[C@@]23C[C@@H](C(=O)OC)N(C(C)=O)C3=N1 | -2 | -42 | -10 | 0.7 | -19 | 13
CN1OC[C@@H]2CN(Cc3ccc(Cl)cc3)[C@H](c3cccc(Br)c3)C[C@@H]21 | x | x | -6 | 1.7 | -9 | 84

(listing goes on)
SMILES | D2 PAM | TRPV1 PAM | CtBP-E1A blk | TRPML1 ag | Six1-Eya2 blk | TRPML1 inh
Cc1ccc(C(=O)N/N=C/c2ccc(-c3cccc(C(F)(F)F)c3)o2)cn1 | -11 | -17 | 1 | -0.1 | -13 | 17
CCOC(=O)C(=O)Nc1ccc(F)cc1 | -4 | -7 | 8 | -0.9 | 6 | -19
Cc1ccccc1NC(=O)C1CCCN(c2ncnc3onc(-c4ccc(F)cc4)c23)C1 (configuration not stated) | -3 | 4 | x | 0.9 | -1 | -1
COc1ccc(N2C(=O)c3ccccc3NC23CCCCC3)cc1 | -8 | 10 | 3 | 0.8 | 2 | -3
O=C(O)CSCC(=O)NCc1ccccc1Cl | -1 | 10 | -24 | -0.2 | 7 | -1
O=C(NCc1cccnc1)C1CCC(c2ccc(Cl)cc2)CC1 (configuration not stated) | -6 | -14 | -6 | -0.6 | -5 | -5
CCN=C(N/N=C/c1ccc([N+](=O)[O-])cc1)SC | 9 | 12 | 1 | -1.0 | 6 | -5
CCOC(=O)C1=C(O)C(=O)NC(c2ccccc2)=C(OCC)C1 | -2 | 4 | 8 | 0.7 | 4 | -16
COc1ccc(N2C(=O)CC(Sc3n[nH]c(-c4ccc(C)cc4)n3)C2=O)cc1 (configuration not stated) | -6 | 1 | 0 | -0.3 | 3 | -15
COc1ccc(NC(=S)Nc2ccc(S(=O)(=O)N3CCOCC3)cc2)c(OC)c1 | 0 | 13 | -8 | -0.2 | -8 | -25
Cc1ccc(S(=O)(=O)NC(=O)Nc2ccc(C)cn2)cc1 | -2 | 7 | 7 | 0.0 | 11 | 11
O=C(Nc1ccc(F)cc1)Nc1ccc(Oc2ncnc3cc(Cl)ccc23)nc1 | -1 | 16 | 3 | 0.2 | 0 | 12
O=C(O)CCCN1C(=O)/C(=C/c2ccc(-c3nc4ccccc4s3)o2)SC1=S | 11 | 24 | -22 | 6.3 | u | -5
COc1ccc(Cl)cc1S(=O)(=O)Nc1noc2ccccc12 | -2 | -5 | -19 | -1.3 | 7 | 7
O=C(Nc1ccc(F)c(Cl)c1)c1csc([C@@H]2C[C@H](O)[C@@H](CO)O2)n1 | 4 | x | 1 | -0.9 | 9 | x
Cc1cc(NC(=O)CCC(=O)N(c2ccc(F)cc2)C(C(=O)NC2CCCC2)c2cccnc2)no1 (configuration not stated) | -4 | 2 | 20 | -1.1 | 6 | 1
Fc1ccc(CNCc2ccc3c(c2)OCO3)cc1 | -26 | 9 | -10 | 0.8 | 4 | -14
COc1ccc(OCCOC(=O)c2[nH]c(C)c(C(C)=O)c2C)cc1 | 0 | 12 | 0 | -0.5 | -1 | 0
CCOC(=O)N1CCN(C(=O)c2ccc3oc(CCCc4ccccc4)nc3c2)CC1 | 16 | -9 | -1 | 0.6 | 1 | 4
O=C(CN(C1CCCCC1)S(=O)(=O)c1ccc(F)cc1)NCCCO | 1 | -5 | 15 | 0.6 | 4 | -11
CCOC(=O)c1c(C)[nH]c(C)c1S(=O)(=O)NCc1ccccc1C | -13 | u | -7 | -1.3 | -3 | 2
O=C(COc1ccc(-n2cnnn2)cc1)Nc1cc(Cl)cc(Cl)c1 | -35 | 6 | -3 | 1.8 | 7 | 30

Of the compounds above, these contain a CF3 group.
SMILES | D2 PAM | TRPV1 PAM | CtBP-E1A blk | TRPML1 ag | Six1-Eya2 blk | TRPML1 inh
FC(F)(F)c1cccc(NC(=S)NCC(c2cccnc2)N2CCOCC2)c1 (configuration not stated) | 3 | -4 | 5 | 1.0 | 4 | 22
Cc1ccc(C(=O)N/N=C/c2ccc(-c3cccc(C(F)(F)F)c3)o2)cn1 | -11 | -17 | 1 | -0.1 | -13 | 17
